Methyltransferases: Primary Screen for Target Class Profiling of Small Molecule Inhibitors of Methyltransferases; purified enzyme, MTase-Glo SAH luminescence; hits give low values; calls only at 40 µM; AID 1745853, 2022; 25,000 compounds, 3.9% hits; active = -50% or lower on at least one of six enzymes; inconclusive = the cases between; inactive = as a rule above -30% on all six;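 also: enzymes were COMT GAMT GNMT HNMT NNMT and PNMT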
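Each enzyme was reacted with SAM and its substrate, with compounds tested once at 40 uM; SAH formed was read by MTase-Glo luminescence.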
Calls only; i = inactive; ? = inconclusive; + = active, no number. % is scaled to controls: 0 for no effect and ±100 for the full control effect. An excerpt; count on the stated rates, not on these rows.

O=C(CCCc1nnc2n3nc(-c4ccccc4)nc3c3ccccc3n12)NCc1ccccc1Cl
  Methyltransferases = i
CCNC(=O)N1CC[C@H]2CC(=O)N(CCc3cccc(OC)c3OC)CC[C@H]2C1
  Methyltransferases = i
COc1ccc(OC)c(CN2CCNc3cc(-c4ccnc(C)c4)ncc3C2)c1
  Methyltransferases = +
Cc1cc(O[C@@H]2O[C@H](COC(=O)CC(=O)O)[C@@H](O)[C@H](O)[C@H]2O)c(C(C)C)cc1O
  Methyltransferases = i
C/C(=C\C=C\C(C)C1CCC2(C)C3CCC4C(C)(C)C(=O)CCC45CC35CCC12C)C(=O)O (stereo not given)
  Methyltransferases = ?
COc1cccc(CNC(=O)Cn2c(=O)oc3cc(S(=O)(=O)N4CC(C)CC(C)C4)ccc32)c1 (stereo not given)
  Methyltransferases = i
Cc1ccc(C(=O)Cn2nc3n(C(C)C)c(=O)c4ccc(C(=O)NC5CCCC5)cc4n3c2=O)c(C)c1
  Methyltransferases = i
CN1C(=O)c2cc(C(=O)NCc3ccco3)nn2CC1(C)C(=O)NCc1ccccc1 (stereo not given)
  Methyltransferases = i
O=C(CN1C(=O)NC2(CCCCC2)C1=O)Nc1ccc2c(c1)OCCO2
  Methyltransferases = i
C[C@H](Nc1ncnc2nc[nH]c12)c1cc2ccc(F)cc2nc1-c1ccccn1
  Methyltransferases = i
Cn1c(=O)c2ccc(C(=O)NC3CCCCC3)cc2n2c(=O)n(Cc3cccc(F)c3)nc12
  Methyltransferases = i
CN1CCc2cc3c(cc2C(=O)Cc2cc4c(cc2C1)OCO4)OCO3
  Methyltransferases = i
O=C(c1cnc(C2CC2)nc1)N1CCC2(CCNCC2CO)CC1 (stereo not given)
  Methyltransferases = i
Cc1ccc(C(=O)Cn2nc3n(CCC(C)C)c(=O)c4ccc(C(=O)NCC(C)C)cc4n3c2=O)cc1
  Methyltransferases = i
CCCCN1C(=O)c2cc3c(OC)ccc(OC)c3n2CC1(C)C(=O)NC1CCCC1 (stereo not given)
  Methyltransferases = i

COc1ccccc1-n1cc(C(=O)N2CCCC2c2nonc2C)cn1 (stereo not given)
  Methyltransferases = i
COc1cc(/C=C/C(=O)NCCn2c(C(F)(F)F)cc3ccccc32)cc(OC)c1OC
  Methyltransferases = i
O=c1c2ccccc2n2c(-c3cccc(Cl)c3)nnc2n1CCc1ccccc1
  Methyltransferases = i
CC1CC(=O)C2=C(O1)OC1(C)CCC3C(C)(C)C=CC(=O)C3(C)C1C2 (stereo not given)
  Methyltransferases = +
COc1cccc(CN2CCC(Oc3ccccc3-c3nc(-c4ccncc4)no3)C2)c1 (stereo not given)
  Methyltransferases = ?
O=C(Nc1ccccc1F)C1CN(C2CCCC2)C(=O)N1 (stereo not given)
  Methyltransferases = i
CC1CCCC(NC(=O)C2(C)Cn3c(cc4sccc43)C(=O)N2c2ccc(Cl)cc2)C1C (stereo not given)
  Methyltransferases = i
O=C(Cn1nc2nc(Nc3ccc(F)cc3)ccn2c1=O)NC1CCCC1
  Methyltransferases = i
CCOc1ccc(CCNC(=O)Cn2ccc3cc(S(=O)(=O)N4CCCCC4)ccc32)cc1
  Methyltransferases = i
Cc1ccc(S(=O)(=O)n2ccc(-c3c(-c4ccc(Cl)cc4)noc3C)n2)cc1
  Methyltransferases = i
COc1cc(-c2nccc3c(=O)cc(N4CCOCC4)oc23)ccn1
  Methyltransferases = i
Cc1ccc(N2C(=O)c3ccc(-c4ccco4)n3CC2(C)C(=O)NCc2ccc(Cl)cc2)cc1 (stereo not given)
  Methyltransferases = i
CCC(C)NC(=O)CSc1nnc2n(Cc3ccc(C)cc3)c(=O)c3ccccc3n12 (stereo not given)
  Methyltransferases = i
O=C1CC2CCCC(C1)N2C(=O)c1ccncc1
  Methyltransferases = i
CCCCNC(=O)c1cc2n(n1)CC(C)(C(=O)NCc1ccc(F)cc1)N(C)C2=O (stereo not given)
  Methyltransferases = i

Copied from the results shown for reference:
COc1ccccc1-n1cc(C(=O)N2CCCC2c2nonc2C)cn1 (stereo not given)
  Methyltransferases = i
COc1cc(/C=C/C(=O)NCCn2c(C(F)(F)F)cc3ccccc32)cc(OC)c1OC
  Methyltransferases = i
O=c1c2ccccc2n2c(-c3cccc(Cl)c3)nnc2n1CCc1ccccc1
  Methyltransferases = i
CC1CC(=O)C2=C(O1)OC1(C)CCC3C(C)(C)C=CC(=O)C3(C)C1C2 (stereo not given)
  Methyltransferases = +
COc1cccc(CN2CCC(Oc3ccccc3-c3nc(-c4ccncc4)no3)C2)c1 (stereo not given)
  Methyltransferases = ?

Continued.
CC(=O)NC1CC2(CCN(C(=O)CCCNC(=O)OC(C)(C)C)CC2)Oc2ccccc21 (stereo not given)
  Methyltransferases = i
CCOC(=O)c1cc2n(n1)CC(C)(C(=O)NCCCOC)N(c1cc(C)cc(C)c1)C2=O (stereo not given)
  Methyltransferases = i
C[C@]1(OC(=O)/C=C\c2ccc(O)cc2)C[C@@H](O)[C@]2(O)C=CO[C@@H](O[C@@H]3O[C@H](CO)[C@@H](O)[C@H](O)[C@H]3O)C12 (stereo not given in full)
  Methyltransferases = i
Cn1ccnc1CN[C@@H]1C[C@H](CO)[C@@H](O)[C@H]1O
  Methyltransferases = i
CCCN(CCC)CCCN1C(=O)c2cc3occc3n2CC1(C)C(=O)NC1CCCCCC1 (stereo not given)
  Methyltransferases = i
CC1(C(=O)NC2CCCCCC2)Cn2c(nc3ccccc32)C(=O)N1CCCN1CCOCC1 (stereo not given)
  Methyltransferases = i
O=C(NCc1ccccc1)C1CCCN1c1nccc(Nc2ccccc2F)n1 (stereo not given)
  Methyltransferases = i
CC1CCN(c2ncncc2-c2nc(-c3ccccc3)no2)CC1
  Methyltransferases = ?
CCCn1c(=O)c2ccccc2n2c(=O)n(CC(=O)Nc3cc(F)ccc3F)nc12
  Methyltransferases = i
CCc1cc(C(N)=O)ccc1-n1nc(C(C)C)c2c(-n3cnc(-c4cnn(C)c4)c3)ccnc21
  Methyltransferases = i
C=C1C(=O)O[C@H]2[C@H]1[C@@H](OC(=O)C(C)CO)C[C@@]1(C)[C@H](O)CCC(=O)[C@H]21 (stereo not given in full)
  Methyltransferases = i
COc1cc(CCc2ccc(OCC=C(C)C)cc2)cc(OC)c1OC
  Methyltransferases = i
CCn1c(=O)n(CC)c2cc(S(=O)(=O)Nc3cccc(C)c3)ccc21
  Methyltransferases = i
CC(C)NC(=O)C1CCCN1c1nc2ncccc2o1 (stereo not given)
  Methyltransferases = i
CN(Cc1ccccc1)Cc1cn([C@H]2CO[C@H]3[C@@H]2OC[C@@H]3NCc2ccccc2)nn1
  Methyltransferases = i

CCC(C)C1NC(=O)C2C(C)CCN2C(=O)C(CC(O)CO)OC(=O)CCNC(=O)C(C)N(C)C(=O)C(C(C)C)N(C)C1=O (stereo not given)
  Methyltransferases = i
CCN1CCN(c2nc3c(s2)CN(Cc2ccccn2)CC3)CC1
  Methyltransferases = i
CN1CCN(c2ccc(Nc3cc(-c4cccc(-n5ccc6cc(C7CC7)cc(F)c6c5=O)c4CO)cn(C)c3=O)nc2)CC1
  Methyltransferases = ?
O=c1[nH]c2cc(Cl)ccc2c(O)c1-c1ccc(Oc2ccccc2)cc1
  Methyltransferases = i
CC1(C(=O)NC2CCCCC2)Cn2nc(-c3cccs3)cc2C(=O)N1Cc1cccc(Cl)c1 (stereo not given)
  Methyltransferases = i
O=C1NC2(CCN([S+](=O)([O-])c3cccc(C(F)(F)F)c3)C2)COc2ccccc21 (stereo not given)
  Methyltransferases = i
O=C(COC(=O)C(Cc1c[nH]c2ccccc12)NC(=O)c1ccc(Cl)cc1)c1ccc(Br)cc1 (stereo not given)
  Methyltransferases = i
CCCC1c2ccc(C)n2CCN1C(=O)Nc1ccccc1C(=O)OC (stereo not given)
  Methyltransferases = i
COc1cccc(CN2C(=O)c3cc4ccccc4n3CC2(C)C(=O)NCCC(C)C)c1OC (stereo not given)
  Methyltransferases = i
COc1ccc(-c2n[nH]n3c2nc(=O)c2ccc(C(=O)NCc4cccnc4)cc23)cc1
  Methyltransferases = i
O=C(Cn1nc2n(Cc3ccc(F)cc3)c(=O)c3ccccc3n2c1=O)NCc1ccccc1Cl
  Methyltransferases = i
CCCn1c(=O)c2ccc(C(=O)NC3CCCCC3)cc2n2c(=O)n(Cc3c(F)cccc3Cl)nc12
  Methyltransferases = i
CCCn1c(=O)c2ccc(C(=O)NCC(C)C)cc2n2c(=O)n(CC(=O)c3cc(C)ccc3C)nc12
  Methyltransferases = i
CCCc1cc(C(=O)N[C@@H]2CCOC[C@H]2OCCO)n(C)n1
  Methyltransferases = i
Cn1c(=O)n(C)c2cc(S(=O)(=O)NCc3ccc4c(c3)OCO4)ccc21
  Methyltransferases = i

The results go on.
canonical_smiles	Methyltransferases
CC(CC12CCCN1C(=O)C1CCCN1C2=O)OC(N)=O (stereo not given)	i
COc1cc(/C=C/C(=O)OC[C@H]2O[C@@](CO)(O[C@H]3O[C@H](CO)[C@@H](O)[C@H](O)[C@H]3O)[C@@H](OC(=O)/C=C/c3ccc(O)c(OC)c3)[C@@H]2O)ccc1O	+
Cc1ccc(NC(=O)CSc2nnc3n(CCCOC(C)C)c(=O)c4ccccc4n23)c(Cl)c1	i
COCCNC(=O)c1ccc(OC2CCN(Cc3ccc(OC)cc3F)CC2)c(Cl)c1	i
Cc1ccc(C)c(NC(=O)N2CCn3cccc3C2C(C)C)c1 (stereo not given)	i
CCN(CC)CCOCCOC(=O)C(CC)(CC)c1ccccc1	i
CC1CCN(S(=O)(=O)c2ccc3c(ccn3CC(=O)NCCC3=CCCCC3)c2)CC1	i
Cc1cc(C(=O)N2CCCCCC2CN2CCC(C)CC2)nn1C (stereo not given)	i
CN(C)c1nccnc1OC1CCN(S(=O)(=O)Cc2ccccc2)C1 (stereo not given)	i
CC1CCN(S(=O)(=O)c2ccc3c(ccn3CCC(=O)NC(C)c3ccccc3)c2)CC1 (stereo not given)	i
CCC(=O)N1CCN(C(=O)c2ccccc2)CC1	i
O=C1COc2ccc(N3CCCC3)nc2CN1Cc1ccc(C(F)(F)F)cc1	i
CCc1cc2c(cc3n2CC(C)(C(=O)NC2CCC(C)CC2)N(c2cccc(OC)c2)C3=O)s1 (stereo not given)	i
COc1ccc(CCN2C(=O)c3ccc(-c4ccco4)n3CC2(C)C(=O)NCc2ccc(Cl)cc2)cc1OC (stereo not given)	i
C=C1C(=O)O[C@@H]2/C=C(\C)CC/C=C(/C=O)[C@H](OC)[C@@H](OC(=O)C(C)C)[C@@H]12	i
CNC(=O)[C@@H]1CN(C(=O)c2ccncc2)C[C@H]1CO	i
COc1cccc(C(=O)Cn2nc3n(C(C)C)c(=O)c4ccc(C(=O)NC5CCCCC5)cc4n3c2=O)c1	i
CC1(C(=O)NC2CCCCCC2)Cn2c(ccc2-c2ccco2)C(=O)N1CCc1cccs1 (stereo not given)	i
Nc1ncnc2c1nc(Sc1ccc(Cl)cc1)n2[C@H]1OC2COP(=O)(O)O[C@@H]2C1O (stereo not given in full)	i
COc1ccc(CCN2C(=O)c3cc4ccccc4n3CC2(C)C(=O)NC2CCCC2)c(OC)c1 (stereo not given)	i
C=CCSC(C)C(=O)N1CCCn2nc(C(=O)OC)cc2C1 (stereo not given)	i
CCOc1ccc(CN2C(=O)c3cc(C(C)(C)C)nn3CC2(C)C(=O)NC2CCCCCC2)cc1 (stereo not given)	i
O=C1NCCCCCN(CC2CCCCC2)[C@H]2CCC[C@@H]12	i
COc1ccccc1-c1nnc2n(CCc3ccccc3)c(=O)c3ccccc3n12	i
CCC(O)c1cc2n(n1)CCN(Cc1nccn1Cc1ccccc1)C2 (stereo not given)	i
COc1ccc(C(=O)CSc2nnc3n(C)c(=O)c4ccc(C(=O)NC5CCCCC5)cc4n23)cc1	i
CC(=O)OC1C(O)/C(C)=C\C2C(OC(=O)c3ccccc3)C(C)CC2(OC(C)=O)C(OC(C)=O)C(C)/C=C/C(C)(C)C1OC(C)=O (stereo not given)	i
CCCN1C(=O)c2cc(C(=O)NCCc3cccs3)nn2CC1(C)C(=O)NC1CCCC1 (stereo not given)	i
O=c1c2ccccc2n2c(-c3cc(Br)cs3)nnc2n1Cc1ccc(F)cc1	i
COc1ccc(-c2cc3n(n2)CC(C)(C(=O)NCc2ccccc2OC)N(C2CC2)C3=O)cc1 (stereo not given)	i
COc1ccc(CC2CN(Cc3cccc(-n4cccn4)c3)CCO2)cc1 (stereo not given)	i
COc1ccc(OC)c2c1cc1n2CC(C)(C(=O)NC2CCCC2)N(CCc2ccccc2)C1=O (stereo not given)	i
CN(CCO)C(=O)c1cn2cc(-c3cccs3)n(CC3CC3)c(=O)c2n1	i
Cc1ccc(OC(C)c2nc(-c3cccnn3)no2)cc1C (stereo not given)	i
Cc1ccc(CN2CCCCCCNC(=O)[C@@H]3C[C@@H](C(=O)NCCc4cnc[nH]4)C[C@@H]32)o1	i
CCOC(=O)c1ccc2c(c1)[C@@H]1C=CC[C@@H]1[C@H](c1cccc(Cl)c1)N2	i
CCC(C)NC(=O)CSc1nnc2n(CCc3ccccc3)c(=O)c3ccccc3n12 (stereo not given)	i
CC(C)CNC(=O)c1ccc2c(=O)n(C)c3nn(Cc4cccc(F)c4)c(=O)n3c2c1	i
O=C(C1CC1)N1CCC(Cc2nc(-c3ccc(F)cc3)no2)CC1	i
COc1ccc(CC(=O)N2CC[C@@H](CC(=O)O)[C@@H](CCN(C)c3ccccc3)C2)cc1	i
Cc1cccc(N2C(=O)c3cc(C(C)(C)C)nn3CC2(C)C(=O)NCc2ccccc2)c1C (stereo not given)	i
CC(C)Cn1c(=O)c2ccccc2n2c(=O)n(Cc3ccc(Cl)cc3)nc12	i
O=C1CC(c2nc(-c3cn4ccccc4n3)no2)CN1Cc1ccncc1 (stereo not given)	i
COCCn1c(C)cnc1CC1CCN(C(=O)c2c[nH]c3ccccc23)CC1	i
O=C(NC[C@H]1COCc2nc3cc(F)ccc3n21)C1CC1	i
COc1ccc(N(C(=O)Nc2c(C)cccc2C)c2cc(Nc3ccc(N4CCN(C)CC4)cc3)ncn2)c(OC)c1	+

Three compounds from above, sorted by SMILES length, largest number first.
canonical_smiles	Methyltransferases
COc1ccc(OC)c2c1cc1n2CC(C)(C(=O)NC2CCCC2)N(CCc2ccccc2)C1=O (stereo not given)	i
CCC(C)NC(=O)CSc1nnc2n(CCc3ccccc3)c(=O)c3ccccc3n12 (stereo not given)	i
CC(C)Cn1c(=O)c2ccccc2n2c(=O)n(Cc3ccc(Cl)cc3)nc12	i
